CBX7 inh – blocks human CBX7 binding to H3K27me3 peptide; O95931; AlphaScreen His6-CBX7 / biotin-H3K27me3 peptide binding; stronger effect = lower value; normalised signal (fraction of DMSO) (concentration not given with the values); actives 1.1% (n = 66,000); in the data active means normalised signal below about 0.5;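 further: 100 nL library stock added to about 20 µL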
Target sequence (O95931 whole entry, looked up): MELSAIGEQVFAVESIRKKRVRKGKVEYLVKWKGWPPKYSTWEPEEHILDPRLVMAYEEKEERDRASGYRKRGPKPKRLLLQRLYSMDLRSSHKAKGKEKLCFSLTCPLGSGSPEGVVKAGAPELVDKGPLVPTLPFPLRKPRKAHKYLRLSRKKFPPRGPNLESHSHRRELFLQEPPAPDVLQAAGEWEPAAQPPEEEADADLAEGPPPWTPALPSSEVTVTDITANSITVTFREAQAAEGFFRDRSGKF
CBX7 inh z-score – further read-out of CBX7 inh, marked with its call; z-score; measured here: z-score of CBX7 signal; some inactives read as strong as hits; reference of the scale not given here;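 same signal on another scale; lower means less binding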
Starred values were filed as active, the others as inactive; & = joins results of further samples; ! = not active in a repeat. This is a subset, so the mix of outcomes need not match the whole.

SMILES | CBX7 inh | CBX7 inh z-score
CCc1c(-c2ccccc2)nc2ccccc2c1C(=O)NC(C)CC (centres undefined) | 1.05 | 0.64
Cc1csc(NC(=O)Cc2nn(C)c(=O)c3ccccc23)n1 | 1.03 | 0.464
Cc1nc2ccc(S(=O)(=O)NC(CC(C)C)C(=O)NC3CCCCCC3)cc2s1 (centres undefined) | 1.06 | 2.45
Cc1nc2c(C(=O)NCCCN3CCCC3)cnn2c(C)c1Cc1ccccc1 | 1.02 | 0.69
O=C1CSc2ccc(C(=O)NC3CCCCCCC3)cc2N1 | 1.1 | 0.613
CCN(CC)C(=O)c1cc2c(n(-c3ccc(C)cc3)c1=O)CCCC2=O | 0.957 | -0.46
CCC(=O)N1c2ccc(S(=O)(=O)NCc3ccc(OC)cc3)cc2CC1C (centres undefined) | 0.832 | -0.677
COc1ccc(Cl)cc1NC(=O)Cn1c(SCc2ccc(C)cc2)nc2ccncc21 | 0.855 | -2.06
CCOCCCNC(=O)c1cc2c(-c3cccc(OC)c3)nn(C)c2s1 | 1.09 | 2.41
CCOC(=O)c1cc(-c2ccccc2)n(CCC(=O)N2CCc3ccccc32)c1C | 1.1 | 1.88
Cc1ccc2c(c1)N(CCC(=O)NC1CCCCC1)C(=O)CO2 | 1.08 | 1.32
Cc1cc(Br)ccc1NC(=O)CN1C(=O)c2ccccc2C1=O | 1.06 | 2.48
Cc1ccccc1Nc1cc(C(=O)NCc2ccccc2)c2ccccc2n1 | 1.07 | 1.87
COc1ccc(CCNC(=O)C(=O)c2c(-c3ccccc3)cc3ccccn23)cc1OC | 0.912 | -3.31
CN(CC(=O)NC1CCCCC1)S(=O)(=O)c1cnc[nH]1 | 1.12 | 1.66
CN1CCN(CCCNC(=O)Cn2nc(-c3ccccc3)ccc2=O)CC1 | 0.959 | -1.24
CCOC(=O)c1cccc(Nc2cc(C)nc3c(OC)cccc23)c1 | 0.936 | -0.682
CC(=O)N1CCCc2cc(S(=O)(=O)N3CCN(c4cccc(C)c4C)CC3)ccc21 | 0.916 | -0.695
CCOC(=O)c1cc(-c2nnc(-c3ccccc3C)o2)c(C)nc1C | 0.836 | -1.95
Cc1cc(NC(=O)CNC(=O)c2ccccc2)no1 | 0.909 | -0.994
Cc1ccc(Cn2c(C(=O)Nc3ccc(Cl)cc3)cc3sccc32)cc1 | 0.987 | -0.364
O=C1CC(c2cc3c(cc2Br)OCO3)C2=C(CCCC2=O)N1 (centres undefined) | 0.956 | -0.556
COc1ccccc1-c1cc(C(=O)Nc2ccc(Br)cc2)no1 | 0.96 | -0.46
Cc1nc2c(C(=O)NCCC(C)C)cnn2c(C)c1Cc1ccc(F)cc1Cl | 1.05 | 1.25
Cn1c(NC(=O)c2cccc(Cn3cc(Cl)cn3)c2)nc2ccccc21 | 0.892 | -2.75
Cc1ccc(-n2nc3c(c2NC(=O)Cc2ccccc2)CS(=O)(=O)C3)cc1 | 1.1 | 0.671
COC(=O)Cn1nc(-c2ccccc2)c2ccccc2c1=O | 1.03 | 0.367
CCCCN(C)S(=O)(=O)c1ccc(C(=O)Nc2cccc(-c3nc4ccccc4[nH]3)c2)cc1 | 1.03 | 0.722
Cc1cccc(-c2nc(S(=O)(=O)c3ccccc3)c(N3CCOCC3)o2)c1 | 0.954 | -1.65
CC1CCN(CC(=O)Nc2nc(-c3ccccc3)cs2)CC1 | 1.08 | 1.61
CCOc1ccc(C(=O)c2cn(Cc3cccc(F)c3)c3ccc(F)cc3c2=O)cc1 | 0.817 | -0.646
CCOc1cc2c(cc1OCC)C(c1ccc(-c3ccccc3)cc1)NCC2 (centres undefined) | 0.951 | -0.817
Cc1ccccc1OCc1nnc(SCCC(=O)O)n1Cc1ccccc1 | 0.988 | -0.324
CCC(=O)N1CCc2cc(S(=O)(=O)NCCC(=O)Nc3cc(C)ccc3C)ccc21 | 0.958 | -0.788
Cc1ccccc1OCC(=O)NCCc1nc2ccccc2[nH]1 | 1.02 | 0.982
Cc1nc(N2CCCCC2C)c2c(C)c(C(=O)NC(C)C)sc2n1 (centres undefined) | 0.975 | -0.752
O=C(C1CCN(c2nc3ccccc3[nH]2)CC1)N1CCOCC1 | 0.789 | -2.44
Cc1cc(Nc2ccc(N3CCCCC3)cc2)n2nnnc2n1 | 0.773 | -3.04
CCOC(=O)c1cnc2ccc(OC)cc2c1Nc1ccc(C)c(C)c1 | 1.06 | 0.819
CCCS(=O)(=O)N1CCCC(C(=O)NCCCN(C)c2ccccc2)C1 (centres undefined) | 0.915 | -1.69
O=C(CSc1nnc(CNC(=O)c2cccs2)o1)Nc1ccccc1 | 1.04 | 1.85
COc1ccc(C2CC(C(F)(F)F)n3nc(C(=O)Nc4cccnc4)cc3N2)cc1 (centres undefined) | 1.16 | 3.01
Cc1ccc(NC(=O)c2oc3ccc(S(=O)(=O)N4CCCC4)cc3c2C)c(C)c1 | 1.03 | 0.722
Cc1ccc(Cn2cc(CCC(=O)NCc3cccnc3)c3ccccc32)cc1 | 0.261* | -0.736*
COc1ccccc1NC(=O)c1nn2c(C(F)(F)F)cc(-c3ccc(C)cc3)nc2c1Cl | 1.08 | 1.09
CCCCN(CCCC)S(=O)(=O)c1ccc(C(=O)Nc2ccc3sc(C)nc3c2)cc1 | 0.992 | -0.181
Cc1ccc(Nc2nc(-c3ccncc3)nc3ccccc23)cc1 | 1.02 | 0.0848
COc1ccccc1N1CCN(c2ncc(C(=O)Nc3ccc(F)cc3)c3ccccc23)CC1 | 0.971 | -0.73
O=C(NCCc1ccsc1)c1cc2ccccn2n1 | 0.995 | -0.123
Cc1ccccc1Cn1c(COc2ccc(Cl)cc2)nc2ccccc21 | 0.98 | -0.216
COc1ccc(-n2cnc3cc(C(=O)NCc4cccnc4)ccc32)cc1 | 0.857 | -1.8
COc1cc2c(cc1OC)C(c1ccccc1C)CC(=O)N2 (centres undefined) | 0.969 | -0.403
Cc1cc(NC(=O)c2cc3c(s2)-c2ccccc2OC3)no1 | 1.02 | 0.581
COc1ccccc1CNC(=O)C1CCN(S(=O)(=O)c2c(C)noc2C)CC1 | 1.01 | 0.502
CC1CCc2sc3ncnc(N4CCN(Cc5ccc(F)cc5)CC4)c3c2C1 (centres undefined) | 0.953 | -1.62
CCN(CCCNS(=O)(=O)c1ccc2c(c1)CCN2C(=O)C1CC1)c1cccc(C)c1 | 0.753 | -7.02
CC1(C)CC(=O)C2=C(C1)N(c1ccccc1C(F)(F)F)C(=O)CC2c1ccsc1 (centres undefined) | 0.974 | -0.245
CCCc1ccc(-c2ccc(F)c(N3C(=O)c4cccc(F)c4C3=O)c2)nc1 | 0.793 | -0.731
O=C(NCc1cccnc1)C1c2ccccc2C(=O)N1Cc1ccccc1Cl (centres undefined) | 1.01 | 0.46
COc1ccc2c(c1)c(CC(=O)Nc1ccccn1)c(C)n2C(=O)c1ccc(Cl)cc1 | 0.414* | -2.07*

Further compounds follow:
SMILES | CBX7 inh | CBX7 inh z-score
O=C(O)CCc1ccc(-c2cccs2)n1-c1ccccc1F | 1.5 | 4.78
COc1cccc(NC(=O)C2CCN(S(=O)(=O)c3ccc(C)cc3)CC2)c1 | 1.04 | 1.66
COc1ccc(-c2cc3ccccc3n2CC(O)CN2CCCCCC2)cc1 (centres undefined) | 1.15 | 1.18
Cc1cccc(-n2ccnc2SCC(=O)Nc2ccc3c(c2)OCO3)c1C | 0.788 | -0.211
COc1ccc2nc(N3CCCC(C(=O)NCCC(C)C)C3)sc2c1 (centres undefined) | 1.16 | 1.81
O=C(CCN1C(=O)c2cccnc2C1=O)Nc1cccc(F)c1 | 0.443* | -9.38*
Cc1ccc(N2C(=O)C3CCC(C)(C2=O)C3(C)C)cc1Cl (centres undefined) | 1.23 | 1.68
c1cnc2ccc3[nH]c(-c4ccncc4)nc3c2c1 | 0.97 | -0.341
Cc1cc2nc(-c3cccc(NC(=O)c4cccc5ccccc45)c3)oc2cc1C | 1.01 | 0.2
CCN(CC)C(=O)CN1C(=O)COc2ccc(S(=O)(=O)N3CCOCC3)cc21 | 0.916 | -2.73
CCOC(=O)C1CCCN(C(=O)Cn2ncc3c2-c2cc(C)ccc2OC3)C1 (centres undefined) | 1.06 | 1.5
Cc1nc2ncccn2c1-c1csc(Nc2ccccn2)n1 | 1.03 | 1.12
O=C(CSc1nc2ccccc2o1)NCc1n[nH]c(=O)c2ccccc12 | 0.976&1 | -0.161&-0.00293
COc1cc2ccccc2cc1C(=O)Nc1nc(-c2c(C)cc(C)cc2C)cs1 | 1.17 | 2.91
Cc1cc(C)nc(NS(=O)(=O)c2ccc(NC(=O)c3ccccc3Cl)cc2)n1 | 1.19 | 1.83
Cc1cccc(NC(=O)Cn2cnc3ccccc3c2=O)c1 | 1.02 | 0.59
Cc1nc(-c2ccccc2)sc1C(=O)Nc1ccc(-c2cn3ccccc3n2)cc1 | 1.11 | 2.73
Cc1ccc(OCC(O)CN2CCN(c3ccc(C)cc3)CC2)cc1 (centres undefined) | 1.01 | 0.0233
Cc1ccc2c(c1)c(=O)c(C(=O)c1ccccc1)cn2Cc1ccc(F)cc1 | 0.706 | -2.8
Cc1ccn2c(NC(=O)COc3ccc(Cl)cc3)c(-c3cccs3)nc2c1 | 1.12 | 1.18
O=C(CN1C(=O)CCSc2ccccc21)NCCCN1CCCC1 | 1.01 | 0.475
O=C(CSc1oc(-c2ccc(F)cc2)nc1S(=O)(=O)c1ccc(F)cc1)NC1CCCCC1 | 1.01 | 0.0215
COc1ccccc1OCCn1c(-c2ccc(Cl)cc2)nc2ccccc2c1=O | 1.22 | 2.15
Cc1ccc2c(c1)-c1c(cnn1CC(=O)N1CCN(c3ccccn3)CC1)CO2 | 1.05 | 1.32
CCOc1ccc(CNc2ccc3c(c2)ncn3C)cc1 | 0.685 | -9.06
COc1ccc(NS(=O)(=O)c2ccc3c(c2)CCN3C(=O)CCC(=O)O)cc1Cl | 0.974 | -0.622
Cc1cccc2nc(-c3ccc(Cl)s3)c(Nc3ccc4c(c3)OCCO4)n12 | 1.14 | 1.43
COCCNC(=O)c1cc(-c2ccncc2)nc2ccc(S(=O)(=O)N3CCC(C)CC3)cc12 | 1.09 | 1.62
Cc1cc(C)cc(NC(=O)CSc2nnc(Cc3cc(=O)[nH]c(=O)[nH]3)n2-c2ccc(Cl)cc2)c1 | 0.885 | -1.77
Cc1cc(C)c(C#N)c(Oc2cccc(NC(=O)c3ccccc3Cl)c2)n1 | 1 | 0.126
Cc1cc2c(cc1C)NC(CC(=O)Nc1ccc(O)cc1)C(=O)N2 (centres undefined) | 0.98 | -1.01
CCCCNC(=O)c1cc(Sc2ccc(OCC)cc2)nc2ccccc12 | 1.04 | 1.33
COc1ccc(C(=O)Nc2ccc3oc(-c4ccncc4)nc3c2)cc1 | 1.01 | 0.24
CCOc1cc2[nH]c(=O)n(Cc3ccc(C(=O)NCc4ccccn4)cc3)c(=O)c2cc1OCC | 0.967 | -0.656
c1ccc(Cn2c(COc3ccccc3)nc3ccccc32)cc1 | 1.04 | 0.296
COc1ccc(-c2csc(Nc3ccc(C)c(Cl)c3)n2)cc1F | 0.392*! | -10.5*!
CC1(C)Cc2nc3nc(SCC(=O)c4ccc(Cl)cc4)n(-c4ccccc4)c(=O)c3cc2CO1 | 0.951 | -1.31
Cc1ccc(C)c(N2CC(c3nc4ccccc4n3CCC(C)C)CC2=O)c1 (centres undefined) | 0.994 | -0.0399
CCc1ccccc1N(C)C(=O)Cc1c(C(=O)O)[nH]c2ccccc12 | 1.01 | 0.286
O=C(CN1C(=O)CSc2ccc(S(=O)(=O)N3CCCC3)cc21)NCCN1CCCC1 | 1.05 | 0.1
O=C1CC(c2nc3ccccc3n2Cc2c(F)cccc2Cl)CN1c1ccccc1 (centres undefined) | 0.833 | -1.8
COc1ccc(NC(=O)Cn2nnc(-c3ccccc3Cl)n2)c(OC)c1 | 1.02 | 0.57
COc1ccc(-c2nnc(SCc3ccc(C(=O)O)cc3)o2)cc1 | 0.976 | -0.587
Cc1ccnc(NC(=O)Cn2ncc3c2-c2ccccc2OC3)c1 | 0.887 | -3.26
Cc1ccc(CC2C(=O)N(c3ncccn3)C(=O)C2C)cc1 (centres undefined) | 1.1 | 0.287
CCOc1ccc(C(=O)c2cn(Cc3cccc(F)c3)c3cc(OC)c(OC)cc3c2=O)cc1 | 0.7 | -1.06
COc1ccc(Nc2cc(C(=O)NCc3ccccc3OC)c3ccccc3n2)cc1 | 0.977 | -0.453
CCCCC(CC)CNS(=O)(=O)c1ccc2c(c1)CCN2C(C)=O (centres undefined) | 1.2 | 2.08
COc1ccc(Cc2nc(-c3ccc(OC)cc3)no2)cc1 | 1.47 | 0.556

Grouped by structure, the entries above containing a thiophene ring, fused or not.
SMILES | CBX7 inh | CBX7 inh z-score
CCOCCCNC(=O)c1cc2c(-c3cccc(OC)c3)nn(C)c2s1 | 1.09 | 2.41
Cc1ccc(Cn2c(C(=O)Nc3ccc(Cl)cc3)cc3sccc32)cc1 | 0.987 | -0.364
Cc1nc(N2CCCCC2C)c2c(C)c(C(=O)NC(C)C)sc2n1 (centres undefined) | 0.975 | -0.752
O=C(CSc1nnc(CNC(=O)c2cccs2)o1)Nc1ccccc1 | 1.04 | 1.85
O=C(NCCc1ccsc1)c1cc2ccccn2n1 | 0.995 | -0.123
Cc1cc(NC(=O)c2cc3c(s2)-c2ccccc2OC3)no1 | 1.02 | 0.581
CC1CCc2sc3ncnc(N4CCN(Cc5ccc(F)cc5)CC4)c3c2C1 (centres undefined) | 0.953 | -1.62
CC1(C)CC(=O)C2=C(C1)N(c1ccccc1C(F)(F)F)C(=O)CC2c1ccsc1 (centres undefined) | 0.974 | -0.245
O=C(O)CCc1ccc(-c2cccs2)n1-c1ccccc1F | 1.5 | 4.78
Cc1ccn2c(NC(=O)COc3ccc(Cl)cc3)c(-c3cccs3)nc2c1 | 1.12 | 1.18
Cc1cccc2nc(-c3ccc(Cl)s3)c(Nc3ccc4c(c3)OCCO4)n12 | 1.14 | 1.43
